# Compound activity deposited in PubChem BioAssay by National Center for Advancing Translational Sciences (NCATS).
# 2A StopGo = FMDV 2A StopGo reporter, luciferase signal; human cells with a luciferase reporter of 2A StopGo recoding; control for the full effect not named in the record; AID 1159524; Potency, µM (doses to about 57.9 µM), without a hit: at the top dose signal change, negative = less light; 410,000 compounds, 1.2% hits; active = well fitted falling curve with a large enough effect; inconclusive = small, poorly fitted or top-dose-only effect; inactive = no such curve, though single readings can be large or run the other way; tested in HEK293T cells; note: % is set by controls: 0 for no effect and ±100 for the full control effect; nearly all actives have a fitted effect of over 45% in size; luciferase light after 4 h
# Cruzain Triton = inhibitors of Trypanosoma cruzi cruzain with detergent; AID 1478; purified cruzain, Z-FR-AMC fluorescence, 0.01% Triton; P25779; 200,000 compounds, 0.43% hits; Potency, µM, without a hit: max response, negative = inhibition, hits mostly inhibitors;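 note: plate controls were neutral wells for no effect and buffer without enzyme for full effect; nearly all actives have a fitted effect of over 40% in size; top concentration of the series not given in the record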
# Target sequence (P25779 123-467 limits assumed): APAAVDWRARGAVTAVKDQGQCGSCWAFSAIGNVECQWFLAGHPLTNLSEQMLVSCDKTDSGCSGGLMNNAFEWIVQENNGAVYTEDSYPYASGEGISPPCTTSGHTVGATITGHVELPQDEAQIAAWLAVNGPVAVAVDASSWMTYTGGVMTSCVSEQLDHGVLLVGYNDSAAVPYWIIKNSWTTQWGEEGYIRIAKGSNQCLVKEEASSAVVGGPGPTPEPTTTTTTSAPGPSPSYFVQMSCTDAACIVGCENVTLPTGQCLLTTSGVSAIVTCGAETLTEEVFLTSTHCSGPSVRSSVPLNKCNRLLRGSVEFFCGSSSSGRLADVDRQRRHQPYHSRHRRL
#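 15 min RT preincubation of 1.5 nM cruzain with compound, then 2 uM Z-FR-AMC added; kinetic AMC fluorescence, 60 s delta. Triton X-100 0.01%, pH 5.5.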
# Cruzain inh noDet = cruzain (T. cruzi) inhibition without detergent. P25779. 200,000 compounds, 2.3% hits. Potency, µM, for the others: max response, negative = inhibition, hits mostly inhibitors. purified cruzain, Z-FR-AMC fluorescence, no detergent;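 note: plate controls were enzyme without inhibitor for no effect and buffer without enzyme for full effect; nearly all actives have a fitted effect of over 40% in size; top concentration of the series not given in the record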
#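 Detergent-free condition (0.00005% Triton X-100) in acetate buffer pH 5.5 with DTT. 1.5 nM enzyme and compound were pre-mixed 15 min, then 2 uM Z-FR-AMC substrate added; reaction progress from fluorescence change between first and third reads (60 s).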
# SARS PLP yeast = SARS-CoV PLP inhibition in yeast; S. cerevisiae expressing SARS-CoV PLpro, growth rescue; control for the full effect not named in the record; Potency, µM (series often up to 32.9 µM), for inactives: top-dose activity, positive = growth rescue; 330,000 compounds, 0.19% hits; AID 485353; active means well fitted rising curve with a large enough effect; inconclusive means small, poorly fitted or top-dose-only effect; inactive means no such curve, though single readings can be large or run the other way; note: 0% is about no effect; nearly all actives have a fitted effect of over 55% in size; growth read by luminescence after 48 h
# NS1 inh = influenza NS1 inhibition | 270,000 compounds, 0.4% hits | S. cerevisiae slowed by influenza A NS1, growth recovery by OD600 | Potency, µM (series often up to 46.1 µM), for the others: at the highest dose activity, positive = more growth; active means well fitted rising curve with a large enough effect; inconclusive means small, poorly fitted or top-dose-only effect; inactive means no such curve, though single readings can be large or run the other way; note: nearly all actives have a fitted effect of over 50% in size
#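 Compounds were scored for reversing the slow growth caused by influenza A NS1 in S. cerevisiae, measured by optical density at 600 nm. Assay medium contained 2% galactose at pH 6.0; NS1-free yeast of the same strain were the positive control.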
# MARV entry inh = inhibitors of Marburg virus binding or cell entry; Marburg virus pseudotyped entry inhibition, cell reporter; control for the full effect not named in the record; about a third of the inactives were read at about 46 µM; Potency, µM (doses to about 37.8 µM), for inactives: top-dose activity change, negative = inhibition, most hits filed as inhibitors; AID 540276; 300,000 compounds, 1.8% hits; active = well fitted inhibition curve with a large enough effect; inconclusive = small, poorly fitted or top-dose-only effect, or effect the other way; inactive = flat fitted curve, though single readings scatter; tested in HEK293 cells; about a fifth of its hits are not listed in these tables; note: % is set by controls: 0 for no effect and ±100 for the full control effect; luciferase read-out
# RE007 growth inh = less growth of the S. pombe RE007 Vpr strain | S. pombe RE007 Vpr strain, BacTiter-Glo ATP luminescence, 24 h; control for the full effect not named in the record | Potency, µM (doses to about 92.2 µM), inactives show at the highest dose activity change, negative = less growth | 360,000 compounds, 0.21% hits | AID 651644; active = well fitted falling curve with a large enough effect; inconclusive = small, poorly fitted or top-dose-only effect; inactive = no such curve, though single readings can be large or run the other way;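 note: % is set by controls: 0 for no effect and ±100 for the full control effect; nearly all actives have a fitted effect of over 50% in size; the assay follows cell death caused by Vpr and the record does not say whether a fall means rescue or toxicity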
#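 Fission yeast strain RE007, carrying one chromosomally integrated HIV-1 vpr copy, was seeded at OD 0.01 in PMG+AL medium with 23 nL pinned compound. After 24 h at 30 °C and 99% humidity, viability was read by BacTiter-Glo luminescence.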
# Lassa entry inh = inhibitors of Lassa virus binding or cell entry. 300,000 compounds, 1.2% hits. AID 540256. Lassa virus pseudotype entry inhibition, cell reporter; control for the full effect not named in the record. Potency, µM (doses to about 37.9 µM), without a hit: top-dose activity change, negative = inhibition, hits mostly inhibitors; active means well fitted inhibition curve with a large enough effect; inconclusive means small, poorly fitted or top-dose-only effect, or effect the other way; inactive means flat fitted curve, though single readings scatter; tested in HEK293 cells; note: % is set by controls: 0 for no effect and ±100 for the full control effect; nearly all actives have a fitted effect of over 50% in size; luciferase read-out
# Active calls of the source: *; ? = inconclusive; / = not tested or not shown; & = joins results of further samples; [ ] = remark or other dose. Unless noted, calls come from the whole dose curve; as a rule, active = well fitted curve in the direction sought with a large enough effect; inconclusive = small, poorly fitted or top-dose-only effect, or another doubt; inactive = no such curve, though single readings can be large; an effect the other way counts as inactive or inconclusive. Potency is the fitted concentration of half-maximal effect.
SMILES,2A StopGo,Cruzain Triton,Cruzain inh noDet,SARS PLP yeast,NS1 inh,MARV entry inh,RE007 growth inh,Lassa entry inh
Cn1c(C2CCCN2C(=O)OC(C)(C)C)n[nH]c1=S (stereo unspecified),8%,3.8%,-1%,10%,-4%,8%,0%,1%
CCN(C(=O)COC(=O)c1cc(S(=O)(=O)N2CCOCC2)ccc1F)C1CCS(=O)(=O)C1 (stereo unspecified),-13%,/,/,2%,/,?,-10%,1%
O=C(Nc1cccnc1)c1ccccc1-c1nc(-c2ccccc2F)no1,6%,-1.4%,-1%,3%,-49%,?,-18%,13%
Cc1cccc(C(=O)NCCCNC(=O)c2ccccn2)c1,-11%,/,/,1%,0%,2%[46.1 µM],26%,3%[46.1 µM]
COc1ccc(CNCCCC(=O)Nc2c(Cl)ccc(C)c2Cl)cc1OC,-4%,/,/,4%,10%,-8%[46.1 µM],-14%,/
O=C(Nc1nc2ccccc2[nH]1)Nc1ccccc1F,-7%,/,/,-13%,-3%,?,-22%,-22%[46.1 µM]
CCOc1ccc(C(=O)NNC(=O)C2CC(=O)N(c3ccc(C)cc3)C2)cc1 (stereo unspecified),1%,/,/,2%,/,-4%,1%,-8%[46.1 µM]
Cc1ccc(NC(=O)C2CCCN(S(=O)(=O)c3cccc4cccnc34)C2)cc1Cl (stereo unspecified),?,-7.3%,-23%,/,/,?,/,?
Cc1ccccc1C(=O)Nc1cc(S(=O)(=O)N2CCCCC2)ccc1N1CCN(C)CC1,9%,-0.4%,4%,6%,-2%,?,73%,28%
Cc1c(CC(=O)NCCCC(=O)O)c(=O)oc2c(C)c3oc4c(c3cc12)CCCC4,-6%,/,/,1%,2%,/,5%,/
CCNC(=O)CN1C(=O)NC2(CCOc3ccccc32)C1=O (stereo unspecified),-19%,/,/,2%,-8%,-19%[46.1 µM],-7%,15%[46.1 µM]
Cc1nc2ccc(C(=O)Nc3cccc([N+](=O)[O-])c3)cc2s1,19%,/,/,-3%,-5%,13%[46.1 µM],-12%,0%
O=C(CCCCCN1C(=O)[C@@H]2Cc3ccccc3CN2C1=O)NCCc1ccccc1,-7%,/,/,-2%,-19%,/,17%,/
Cc1cc[n+](-c2nc([O-])sc2/C=N/Nc2ccc([N+](=O)[O-])cc2)cc1,/,-0.4%,-2%,-2%,-2%,5%,-8%,2%
COc1cc(/C=C/C(=O)OCC(=O)NC(=O)NC2CCCCC2)ccc1OC(F)F,9%,/,/,4%,-10%,/,4%,/
CN(C)c1ccc(C(O)P(=O)(OCc2ccccc2)c2ccc(N(C)C)cc2)cc1 (stereo unspecified),-1%,/,/,-1%,-5%,?,6%,?
COc1cccc(CC(=S)N2CCOCC2)c1,4%,0.2%,9%,-11%,19%,?,-11%,-3%
Cc1cc(O)cc2c(=O)c3ccccc3sc12,6%,/,/,-5%,/,-1%[46.1 µM],-7%,4%
COc1cc(NC(=O)c2ccc(Br)o2)c(C(=O)O)cc1OC,4%,-5.3%,-20%,3%,-9%,7%,2%,4%
C=CCN1C(=O)c2ccc(C(=O)N(C)CC(=O)Nc3cccc(F)c3)cc2C1=O,-9%,/,/,2%,0%,-10%,3%,-2%

# Quoted from the listing (6 entries):
SMILES,2A StopGo,Cruzain Triton,Cruzain inh noDet,SARS PLP yeast,NS1 inh,MARV entry inh,RE007 growth inh,Lassa entry inh
COc1cc(/C=C/C(=O)OCC(=O)NC(=O)NC2CCCCC2)ccc1OC(F)F,9%,/,/,4%,-10%,/,4%,/
CN(C)c1ccc(C(O)P(=O)(OCc2ccccc2)c2ccc(N(C)C)cc2)cc1 (stereo unspecified),-1%,/,/,-1%,-5%,?,6%,?
COc1cccc(CC(=S)N2CCOCC2)c1,4%,0.2%,9%,-11%,19%,?,-11%,-3%
Cc1cc(O)cc2c(=O)c3ccccc3sc12,6%,/,/,-5%,/,-1%[46.1 µM],-7%,4%
COc1cc(NC(=O)c2ccc(Br)o2)c(C(=O)O)cc1OC,4%,-5.3%,-20%,3%,-9%,7%,2%,4%
C=CCN1C(=O)c2ccc(C(=O)N(C)CC(=O)Nc3cccc(F)c3)cc2C1=O,-9%,/,/,2%,0%,-10%,3%,-2%

# Following part
SMILES,2A StopGo,Cruzain Triton,Cruzain inh noDet,SARS PLP yeast,NS1 inh,MARV entry inh,RE007 growth inh,Lassa entry inh
Cc1nn(C(=O)c2ccco2)c(C)c1Sc1ccc([N+](=O)[O-])cc1,?,-1.6%,?,-3%,6%,16%,0%,25%
CC(C(=O)N1CC2(C)CC1CC(C)(C)C2)N1C(=O)c2ccccc2C1=O (stereo unspecified),?,-5.8%,9%,-8%,-9%,14%,27%,-9%
C=CCOc1c(Cl)cc(CNn2cn[nH]c2=S)cc1OC,-16%,/,/,1%,3%,1%,17%,8%
COc1ccc(-c2nn(-c3ccccc3)cc2C(=O)N2CCN(S(=O)(=O)c3cccc(F)c3)CC2)cc1,-7%,/,/,5%,/,?,2%,-13%
O=C(Cc1cccs1)NCCc1cn2ccccc2n1,0%,/,/,0%,11%,/,-1%,/
O=[N+]([O-])/C(C=Nc1ccccc1O)=C\Nc1ccccc1O,-17%,/,/,-5%,-62%,/,-13%,/
Cc1cc(C)nc(SCC(=O)NC2=NC(=O)C(C)S2)n1 (stereo unspecified),/,-4.8%,-21%,1%,-1%,-10%,25%,17%
O=C(O)c1ccc(CSc2nnnn2C2CCCCC2)cc1,-11%,-0.2%,-21%,3%,-6%,16%,4%,-5%
COc1cccc(NC(=O)/C(C#N)=C/c2c(C)n(Cc3ccccc3)c3ccccc23)c1,?,-2.6%,7.9µM*,/,/,/,/,?
COc1cc(C(=O)N/C(=C\c2cn(C)c3ccccc23)C(=O)NCCN2CCOCC2)cc(OC)c1OC,-9%,/,/,-3%,-18%,/,-4%,/
Cc1ccc(/C=C/C(=O)Nc2cc(=O)n(C)c(=O)n2C)o1,21%,-9.0%,-9%,-27%,9%,3%,-4%,22%
COc1ccc(-c2nn(CCC#N)cc2C(=O)Nc2ccc(C(C)=O)cc2)cc1,19%,/,/,-2%,9%,/,3%,/
Clc1ccc(-c2ccc(/C=N/Nc3cc(N4CCOCC4)nc(N4CCOCC4)n3)o2)cc1,?,-7.9%,-4%,-53%,16%,6.3µM*,-13%,6%
COCCCNC(=O)COc1ccc(Br)cc1Cl,-11%,-1.2%,-14%,-3%,1%,?,3%,13%
COc1ccc(CCNC(=O)c2ccc3c(c2)OCCO3)cc1,9%,/,/,-1%,/,?,14%,?
O=C(N1CCCCCC1)N1CCN(S(=O)(=O)N2CCOCC2)CC1,0%,2.4%,4%,4%,8%,3%,4%,2%
CC1CCCc2sc3nc(NCc4ccco4)n4ncnc4c3c21 (stereo unspecified),-1%,-16%,-28%,-97%,-96%,?,-2%,-4%
O=C/C(=C\Nc1ccc(Cl)cn1)c1nc2ccccc2o1,8%,-27%,?,-7%,0%,-30%,-7%,-28%
CC(/C=N/NC(=O)c1cnccn1)=C\c1ccco1,37%[activator],/,/,0%,-2%,21%[46.1 µM],-5%,1%
Cc1nnc(N2CCN(C(=O)NCCC(C)C)CC2)c2nn(-c3ccc(Cl)cc3)c(C)c12,?,-0.7%,-3%,/,/,/,/,2%[46.1 µM]
Cc1cccc(C)c1NC(=O)C1(N(Cc2ccco2)C(=O)CC2NC(=O)NC2=O)CCCCC1 (stereo unspecified),5%,5.1%,-6%,3%,-3%,9%[46.1 µM],1%,2%
O=C(CCc1ccccc1)Nc1ccc2ccccc2n1,0%,/,/,-1%,-34%,?,-6%,?
O=C(N/N=C/C=C/c1ccccc1[N+](=O)[O-])c1ccncc1,-9%,/,/,0%,7%,-7%[46.1 µM],-17%,0%[46.1 µM]
O=C(O)CCNC(=O)C12CC3CC(CC(C3)C1)C2,-3%,/,/,2%,/,2%[46.1 µM],10%,0%
O=c1[nH]c2cc3c(cc2cc1C(c1nnnn1Cc1ccccc1)N1CCCc2ccccc21)OCO3 (stereo unspecified),32%[activator],-1.7%,?,-10%,6%,?,3%,-13%
NC(=O)COC(=O)CCSc1ccc(Cl)cc1,0%,/,/,0%,0%,19%[46.1 µM],22%,-1%
COc1ccc(N(CC(=O)Nc2ccc3c(c2)OCO3)S(=O)(=O)c2c(C)nn(C)c2C)cc1,-12%,-3.0%,14%,?,-25%,0%&0%,-3%,0%
Cn1cc(CN2CCCC(C(=O)c3cccs3)C2)c(-c2cccc(Cl)c2)n1 (stereo unspecified),-5%,/,/,0%,0%,?,-5%,-8%[46.1 µM]
CCc1ccc(CNc2nc3nc(C)c(Cc4ccccc4)c(=O)n3[nH]2)cc1,10%,-2.2%,-6%,/,/,-7%[46.1 µM],/,18%[46.1 µM]
CSc1ccccc1C(=O)NCCCOC(C)C,14%,2.5%,-9%,-1%,-5%,15%,9%,-6%
CCOC(=O)c1sc(N2C(=O)c3oc4ccc(F)cc4c(=O)c3C2c2cccc(OC)c2)nc1C (stereo unspecified),8%,-3.1%,-1%,/,/,?,/,29%[46.1 µM]
CCOC(=O)N1CCC(NC(=O)c2cnn3cccnc23)CC1,-17%,0.4%,-1%,-3%,2%,-3%,4%,23%
CC1(C)C(=O)OC(/C=C\c2ccccc2)C(C)(C)C1=O (stereo unspecified),25%,/,/,-2%,3%,0%[46.1 µM],-6%,15%
CNc1nc(-c2ccc3c(c2)CCN3C(=O)CC(C)(C)C)c(C)s1,33%[activator],/,/,0%,3%,/,5%,/
Cc1nc2ccccc2n1C1CCN(CC(=O)NCc2ccc(F)cc2)CC1,/,2.2%,5%,3%,-9%,?,-17%,-8%
Cc1ccc2[nH]c3c(c2c1)CN(C(=O)CN1CCN(c2cccc(C)c2C)CC1)CC3,?,-11%,-1%,-19%,8%,?,16%,?
